TRPML1 agonist = human mucolipin-1 channel agonism; Q9GZU1; TRPML1-expressing cells, Ca2+ dye fluorescence, FDSS; host cell line not named in the record; reference of the full effect not given here; activation, % (test concentration not listed); actives 0.12% (n = 410,000); in the data active = activation above about 50%; inconclusive = about 30% to 50%; inactive = below about 30%; also: 0% is about no effect; the text of the record puts the active cut at 80%
Target sequence (Q9GZU1 whole entry, looked up): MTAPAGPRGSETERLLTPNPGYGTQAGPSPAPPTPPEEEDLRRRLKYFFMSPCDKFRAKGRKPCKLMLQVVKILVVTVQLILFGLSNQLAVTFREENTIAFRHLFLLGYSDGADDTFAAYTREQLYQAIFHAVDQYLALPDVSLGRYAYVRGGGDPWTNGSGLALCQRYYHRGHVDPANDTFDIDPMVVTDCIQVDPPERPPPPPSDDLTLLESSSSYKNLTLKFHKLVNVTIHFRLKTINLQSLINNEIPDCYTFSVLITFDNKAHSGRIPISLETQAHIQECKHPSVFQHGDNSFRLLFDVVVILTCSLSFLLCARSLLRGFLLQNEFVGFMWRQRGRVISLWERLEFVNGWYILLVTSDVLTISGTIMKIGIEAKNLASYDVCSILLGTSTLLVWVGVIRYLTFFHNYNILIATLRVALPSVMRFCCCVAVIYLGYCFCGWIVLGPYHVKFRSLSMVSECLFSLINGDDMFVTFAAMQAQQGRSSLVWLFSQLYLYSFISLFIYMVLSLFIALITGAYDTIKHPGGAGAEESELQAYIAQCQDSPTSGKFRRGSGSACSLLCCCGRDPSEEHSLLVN
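Agonist activity was taken from a 110 s kinetic Ca2+ dye read on the FDSS after pinning compounds onto TRPML1-DL cells. The cells were seeded at 1,500/well with Tet inducer, incubated about 16 h, then dye-loaded at room temperature.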
gsp agonist = agonists of gsp mutant (McCune-Albright syndrome); actives 0.13% (n = 340,000); Potency, µM (titrated, usually from 76.9 µM), inactives show at the top dose activation (cAMP increase), usual class: activators; gsp mutant cells, cAMP HTRF, 30 min; control for the full effect not named in the record; active = well fitted activation curve with a large enough effect; inconclusive = small, poorly fitted or top-dose-only effect, or another doubt; inactive = no such curve, though single readings can be large or run the other way; cell line not stated here;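 also: phosphodiesterase inhibitor Ro 20-1724 added with compounds to block cAMP breakdown; potency is read from the fitted curve at half-maximal effect; nearly all actives have a fitted effect of over 60% in size; about a fifth of the inactives were tested at one dose only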
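Cells in DMEM/10% FBS with G418 were pretreated with compounds in DMSO plus […] (300 uM stock) for 30 min at 37C. cAMP was measured by HTRF (cAMP-d2 plus anti-cAMP antibody-K) after 30 min at room temperature.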
Menin MLL FP FL = displaces fluorescein MLL peptide from human menin; Fluorescence polarization, fluorescein-MLL peptide displacement from menin; FP activity change, % at 61.4 µM; 290,000 tested, under 10 active; AID 1766; inconclusive = falling polarisation curve, or a change in total fluorescence; inactive = total fluorescence flat and polarisation flat or rising; no compound was filed as active; the % refers to the polarisation; negative = inhibition;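 also: % of control where 0% means no effect; inhibitors lower the polarisation; unlabelled MLL peptide was the positive control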
gsp antag = gsp mutant antagonism; gsp-mutant cells, cAMP HTRF, 30 min; control for the full effect not named in the record; AID 624288; Potency, µM (top dose mostly 76.9 µM), for inactives: at the top dose activity change, negative = inhibition, hits mostly inhibitors; actives 0.4% (n = 340,000); active = falling curve of any shape with a large fitted effect; inconclusive = falling curve, mostly with a smaller effect; inactive = flat or rising curve; cell line not stated here;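 also: intracellular cAMP measured with PDE inhibitor Ro 20-1724 present during compound exposure; potency is read from the fitted curve at half-maximal effect; % is scaled to controls: 0 for no effect and ±100 for the full control effect; nearly all actives have a fitted effect of over 65% in size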
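Measurement of cellular cAMP by homogeneous time-resolved fluorescence following a 30 min compound exposure at 37C. The PDE inhibitor […] was present throughout; the assay buffer was DPBS with 0.05% BSA and 0.005% Tween 20.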
ClpP mod = qHTS Assay for Activators of ClpP; ATP-dependent Clp protease proteolytic subunit (Bacillus subtilis (strain 168)), P80244; purified B. subtilis ClpP, FRET peptide cleavage, 20 min; Potency, µM (doses to about 57.5 µM), for the others: at the highest dose activity change, negative = active; actives 1.9% (n = 340,000); active = well fitted falling curve with a large enough effect; inconclusive = small, poorly fitted or top-dose-only effect; inactive = no such curve, though single readings can be large or run the other way; also: potency is read from the fitted curve at half-maximal effect; the source files actives as falling curves though it sought activators and does not explain the sign; nearly all actives have a fitted effect of over 65% in size; many hits overshoot -100%
Target sequence (P80244 whole entry, looked up): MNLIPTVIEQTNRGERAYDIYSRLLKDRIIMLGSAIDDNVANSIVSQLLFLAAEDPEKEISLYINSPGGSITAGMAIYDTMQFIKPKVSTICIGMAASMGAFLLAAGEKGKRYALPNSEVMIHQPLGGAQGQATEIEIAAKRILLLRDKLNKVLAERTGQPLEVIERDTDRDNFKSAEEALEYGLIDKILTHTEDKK
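FRET quenching reversal measured ClpP activation: 10 microg/mL B. subtilis ClpP at pH 8 with the FRET-FV decapeptide, read at 430 nm after 320 nm excitation. The 20-min minus 0-min signal was scaled between DMSO/no-enzyme wells and ADEP (5.8 microM final).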
TRPML1 blocker = blocks the human TRPML1 channel. activity change, negative = inhibition, % (test concentration not listed). Q9GZU1. actives 0.02% (n = 390,000). TRPML1-inducible cells, Ca2+ dye fluorescence, FDSS; hits give low values; inhibition of EC80 agonist-evoked calcium signal; in the data active means activity change below about -50%; inconclusive means about -30% to -50%; inactive means above about -30%;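 also: stimulus is agonist 54-4 at its EC80 concentration; % is scaled to controls: 0 for no effect and ±100 for the full control effect; compound concentration not given in the record; the text of the record puts the active cut at -80%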
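Tet-induced TRPML1-DL cells loaded with Ca8 no-wash calcium dye were read kinetically on FDSS. Compound addition was followed by EC80 agonist 54-4 (4 uM final); inhibition was read over 110 s.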
The depositor's hits bear a star; ? = inconclusive; · = not tested or not shown; [ ] = another dose, or the depositor's remark. Random draw from the library; about 2.1% have a hit in one of these screens.

SMILES	TRPML1 agonist	gsp agonist	Menin MLL FP FL	gsp antag	ClpP mod	TRPML1 blocker
Cc1cccc(NC(=O)c2ccc3c(Cl)c4c(nc3c2)CCCC4)n1	-0.1	?	-3.1	6%	102%	10
O=C(CNC(=O)c1ccc(Cl)cc1Cl)NCc1ccccn1	1.9	1%	·	10%	-2.8%	13
CCc1ccc2oc(-c3ccc(NC(=O)c4cc5ccccc5o4)cc3)nc2c1	-0.3	·	·	·	?	-1
CCOc1ccc(C(=O)NC2CCN(C(=O)Nc3ccc(F)cc3)CC2)cc1	0.0	-10%	0.8	-15%	·	3
CCOc1ccc(C2/C(=C(\O)c3cccc(OC)c3)C(=O)C(=O)N2c2ccccn2)cc1OC (stereo not drawn)	-1.2	28%	5.3	-16%	·	12
CCOc1ccccc1Nc1nnc(SCC(=O)Nc2cccc(S(=O)(=O)NC3=NCCCCC3)c2)s1	-0.4	-2%[15.4 µM]	0.0	-17%	-0.8%	6
O=C(/C(C=Nc1ccc(Br)cc1)=C(/O)c1ccco1)C(F)(F)F	-0.3	-7%	?	?	-1.6%	3
CN(CC(O)Cn1c2ccccc2c2ccccc21)S(C)(=O)=O (stereo not drawn)	0.8	-12%	2.7	11%	-27%	21
COc1ccc(-c2cc(C(=O)Nc3cccc(Cl)c3)no2)cc1	·	?	-5.0	14%	0.6%	·
COc1ccc(CCC(C)N2CCc3ccccc3C2)cc1 (stereo not drawn)	0.3	27%	0.2	9%	0.5%	-20
O=[N+]([O-])c1ccc(Cl)cc1Sc1cccc2cccnc12	0.5	16%	-1.6	-13%	-1.3%	-5
Cc1cc(NCCC(C)C)n2nc(C)c(-c3ccccc3)c2n1	0.1	10%	6.0	-8%	28µM*	1

2 of these compounds in another layout:
| Molecule | TRPML1 agonist | gsp agonist | Menin MLL FP FL | gsp antag | ClpP mod | TRPML1 blocker |
| --- | --- | --- | --- | --- | --- | --- |
| COc1ccc(CCC(C)N2CCc3ccccc3C2)cc1 (stereo not drawn) | 0.3 | 27% | 0.2 | 9% | 0.5% | -20 |
| O=[N+]([O-])c1ccc(Cl)cc1Sc1cccc2cccnc12 | 0.5 | 16% | -1.6 | -13% | -1.3% | -5 |

Back to the main list with the two entries that preceded the break.
SMILES	TRPML1 agonist	gsp agonist	Menin MLL FP FL	gsp antag	ClpP mod	TRPML1 blocker
O=[N+]([O-])c1ccc(Cl)cc1Sc1cccc2cccnc12	0.5	16%	-1.6	-13%	-1.3%	-5
Cc1cc(NCCC(C)C)n2nc(C)c(-c3ccccc3)c2n1	0.1	10%	6.0	-8%	28µM*	1
COc1ccc2nc(SCC(=O)c3c(C)[nH]c4ccccc34)nc(C)c2c1	-0.4	·	·	·	-2.1%	-13
CCOc1ccc(NC(=S)N(CCCN2CCCC2)Cc2cccn2Cc2ccc(Cl)cc2)cc1	0.7	-7%[15.4 µM]	0.8	-10%	·	30
COc1ccc(Oc2nc3c(C)cccn3c(=O)c2/C=C(\C#N)c2nc3ccccc3[nH]2)cc1	1.0	·	·	·	0.8%	8
COc1ccc(-n2nc(C(=O)NCCCOC(C)C)c3c4ccccc4n(C)c3c2=O)cc1	2.9	·	·	·	?	2
COCCN=C1Sc2nc3cc(C)c(C)cc3cc2CN1Cc1cccs1	0.0	-3%[15.4 µM]	1.4	-1%	·	1
CC(=O)c1ccccn1	-0.1	4%	·	3%	-1.8%	-5
O=C(CN(Cc1ccc(F)cc1)C(=O)CNS(=O)(=O)c1ccc(F)cc1)NCc1ccco1	-0.8	-6%[15.4 µM]	-2.2	4%	·	1
O=C(C(Cc1ccccc1)N1C(=O)C2C3C=CC(C3)C2C1=O)N1CCCCCC1 (stereo not drawn)	-0.3	17%	1.8	0%	0.7%	0
CC(C)[C@H](NC(=O)N1CCn2c1nc1ccccc12)C(=O)NCc1ccc(F)cc1	0.7	-42%[inhibitor]	-2.0	?	0.4%	-4
Cc1ccc(-n2nc3c(n2)/C(=N/O)CC/C3=N\O)cc1	0.6	-3%[15.4 µM]	3.7	7%	-6.0%	5
CCN(CC)C(=O)CSc1nnc(-c2cccc(OC)c2)o1	-0.2	-28%	-1.6	1%	-0.5%	26
O=C(O)C1CC=CCC1C(=O)Nc1ccc2c(c1)CCC2 (stereo not drawn)	0.1	-41%[inhibitor]	·	-14%	1.6%	16
CN(C)CCNc1ncnc2ccccc12	-1.1	24%	5.5	4%	-7.9%	0
O=C1CC(c2c(Cl)cccc2Cl)c2c(ccc3ccccc23)N1 (stereo not drawn)	-0.8	·	·	·	-8.4%	-12
CC1CC(C)CN(C(=S)Nc2ccc(OC(F)F)cc2)C1 (stereo not drawn)	-0.3	?	-1.2	3%	-0.8%	12
O=C(Nc1ccc(O)cc1)c1c(O)c2c([nH]c1=O)CCCC2	2.1	-15%[15.4 µM]	2.6	-8%	·	5
COCCNc1c2c(nc3c(-c4ccccc4)c(C)nn13)CCCC2	3.1	7%	-1.2	35µM*	-7.4%	27
COc1ccccc1OCCN1C(=O)S/C(=C\c2ccco2)C1=O	0.9	-1%	?	-2%	-5.9%	-2
O=C(CN1C(=O)c2ccccc2S1(=O)=O)N1CCN(c2ccc(F)cc2)CC1	-0.1	-35%	2.8	-12%	-4.5%	-9
NC(=O)COC(=O)CC12CC3CC(CC(Br)(C3)C1)C2	0.1	30%	0.1	8%	-0.7%	22
Cc1cccc(N2CCN(C3=C(c4ccccc4)C(=O)c4ccccc43)CC2)c1C	-1.2	·	·	·	-4.7%	2
Cn1cc(CNC(=O)C2c3ccccc3Oc3ccccc32)cn1	1.3	-48%[inhibitor]	0.8	?	-0.7%	8
O=C(Nc1nc(-c2cc3ccccc3o2)cs1)c1ccc(S(=O)(=O)N2CCCC2)cc1	2.5	?	6.7	?	160%	1
Cc1cccc(NS(=O)(=O)c2ccc(C(=O)N3CC(C)OC(C)C3)cc2)c1C (stereo not drawn)	1.7	-9%[15.4 µM]	·	1%	-0.7%	5
COc1ccc(/C=C2\CCc3c2nc2ccccc2c3C(=O)O)cc1OC	3.3	?	?	4%	-12%	8
C/C(=N\NS(=O)(=O)c1ccc(C)cc1)c1ccc(C)o1	0.9	10%	2.2	-10%	·	-14
Cc1ccc(C(=O)c2ccccc2C(=O)Nc2ccccc2)cc1	-0.3	·	·	-3%	-0.2%	6
CN1CCN(S(=O)(=O)c2ccc(NC(=O)c3cccs3)cc2)CC1	-0.3	-20%	-0.7	-2%	-0.8%	17
c1cc(-c2cccs2)nc(-c2cccs2)c1	-0.3	?	-1.6	11%	·	0
O=S(=O)(c1ccccc1Br)N(Cc1ccccc1)Cc1ccco1	12	·	1.2	·	·	-22
Cc1cccc(-n2c(C)cc(/C=N/O)c2C)c1	-0.4	-60%[inhibitor]	0.4	5%	?	4
CC(=O)Nc1ccc(S(=O)(=O)N(Cc2ccco2)Cc2cc3ccccc3[nH]c2=O)cc1	-0.6	-3%	·	-13%	-20%	-2
Cn1c(=O)c2c(nc(NCC3CCCO3)n2C)n(C)c1=O (stereo not drawn)	0.2	?	1.5	12%	0.6%	7
CC(NC(=O)C1CCC(CNc2c(N3CCOCC3)c(=O)c2=O)CC1)c1ccccc1 (stereo not drawn)	-0.7	-8%	1.8	2%	-1.6%	-5
CCOC(=O)C1(C)/C(=N/Nc2ccccc2Cl)C(=O)C(=O)N1c1ccccc1 (stereo not drawn)	1.4	-36%[inhibitor]	-2.4	?	1.4%	15
Nc1nonc1C(=O)NCCNS(=O)(=O)c1ccc(Br)cc1	1.0	15%	1.9	5%	-0.5%	20
CN(C)c1ccc(S(=O)(=O)N2CCC(Cc3ccccc3)CC2)cn1	1.6	12%	·	-9%	?	-10
O=C(CCNS(=O)(=O)c1ccc(Br)cc1)NCCc1ccc(Cl)cc1	0.0	-19%	·	?	·	7
CCCCN(C(=S)SC)C1CCS(=O)(=O)C1 (stereo not drawn)	-0.2	10%[15.4 µM]	3.1	5%	·	31
c1ccc(Cn2nnnc2C(c2cccs2)N2CCOCC2)cc1 (stereo not drawn)	1.9	0%	4.8	10%	-0.4%	7
O=C(Nc1ccc(Cl)cc1)C1CC(=O)n2c(nc3ccccc32)N1 (stereo not drawn)	0.4	3%[15.4 µM]	11	7%	·	75
CCOC(=O)N/N=C\C=C\c1ccc2c(c1)OCO2	-1.2	-12%	1.2	-12%	·	0
CN(Cc1cc(Cl)cc(Cl)c1)[C@H]1C[C@H]2c3[nH]c4ccccc4c3CCN2C(=O)[C@H]1CO	0.2	20%	·	·	-19%	8
COc1ccc(OC)c(-n2nnnc2SCC(=O)Nc2ccccc2OC)c1	0.9	-3%	-0.8	-9%	-0.1%	-19
O=C(NC1CCCC1)c1cccc2c1C(=O)c1ccc(Cl)cc1S2(=O)=O	-0.2	·	·	-13%	-1.0%	27
COc1ccc(OC)c(N(C(=O)c2ccco2)C(C(=O)NC2CCCC2)c2ccc(N3CCOCC3)cc2)c1 (stereo not drawn)	-0.9	-6%[15.4 µM]	3.3	-3%	-0.1%	6
CC1COC(=O)C(NNc2ccc(Cl)c(Cl)c2)=N1 (stereo not drawn)	1.0	18%	-3.4	-1%	-5.8%	20
COc1ccc(-c2cc(C(=O)N3CCN(Cc4ccccc4)CC3)no2)cc1OC	-0.7	5%	4.4	-16%	-7.6%	13
CC1(C)C2CCC1(C(=O)O)c1nc3ccccc3nc12 (stereo not drawn)	0.5	-10%	1.8	-3%	·	20
Cn1nc(C(C)(C)C)cc1C(=O)NNC(=O)c1ccccc1Cl	-0.3	11%[15.4 µM]	-0.8	10%	-0.1%	14
COc1ccc(CNC(=O)COC(=O)CC(NC(N)=O)c2ccc(Cl)cc2)cc1OC (stereo not drawn)	-0.1	?	·	10%	1.1%	2
CC1CN(c2ncnc3c2oc2ccccc23)CC(C)O1 (stereo not drawn)	0.9	-2%	2.9	9%	-0.4%	-1
Nc1ccc2oc(C3CCCCC3)nc2c1	-0.2	28%	-12	7%	-5.2%	6
CCN(CC)CCNc1ccc(Cl)cc1[N+](=O)[O-]	-0.4	-20%	·	1%	0.3%	3
CCOc1ccccc1NC(=O)CN1CCc2ccccc2C1	0.7	9%[15.4 µM]	3.7	-25%	0.4%	0
COc1ccc(N=C2SC(C(=O)Nc3ccc(C(=O)O)cc3)CC(=O)N2Cc2cccs2)cc1 (stereo not drawn)	2.2	0%[15.4 µM]	1.3	?	·	21
C/C(NCCc1ccccc1)=C1/CCOC1=O	-0.9	17%	·	·	-0.3%	-7
S=C(Nc1cccc2ccccc12)NN1CCOCC1	-0.2	-16%	0.6	13%	?	-7
CC(NC(=O)Cn1cc(C(F)(F)F)cc(Cl)c1=O)c1ccccc1 (stereo not drawn)	-0.3	-19%	6.1	7%	·	14
Cc1cccc(N(CC(=O)NC(C)(C)C)C(=O)CCC(=O)Nc2ccccn2)c1	-0.6	2%[15.4 µM]	-0.9	9%	1.2%	7
